Screening data as filed in PubChem BioAssay.
TRPV1 potentiator: HTS Assay for Compounds that Act as Potentiators of the Vanilloid Receptor 1 | TRPV1-expressing cells, Fluo-8 calcium influx, capsaicin EC20 potentiation; host cell line not named in the record; control for the full effect not named in the record | 320,000 tested, 0.02% active | potentiation, % at 8.33 µM | Transient receptor potential cation channel subfamily V member 1 (Homo sapiens), Q8NER1 | AID 540277, 2011; active means potentiation above 80%; inconclusive means 30% to 80%; inactive means below 30%; note: 0% is about no effect
Target sequence (Q8NER1 whole entry, looked up): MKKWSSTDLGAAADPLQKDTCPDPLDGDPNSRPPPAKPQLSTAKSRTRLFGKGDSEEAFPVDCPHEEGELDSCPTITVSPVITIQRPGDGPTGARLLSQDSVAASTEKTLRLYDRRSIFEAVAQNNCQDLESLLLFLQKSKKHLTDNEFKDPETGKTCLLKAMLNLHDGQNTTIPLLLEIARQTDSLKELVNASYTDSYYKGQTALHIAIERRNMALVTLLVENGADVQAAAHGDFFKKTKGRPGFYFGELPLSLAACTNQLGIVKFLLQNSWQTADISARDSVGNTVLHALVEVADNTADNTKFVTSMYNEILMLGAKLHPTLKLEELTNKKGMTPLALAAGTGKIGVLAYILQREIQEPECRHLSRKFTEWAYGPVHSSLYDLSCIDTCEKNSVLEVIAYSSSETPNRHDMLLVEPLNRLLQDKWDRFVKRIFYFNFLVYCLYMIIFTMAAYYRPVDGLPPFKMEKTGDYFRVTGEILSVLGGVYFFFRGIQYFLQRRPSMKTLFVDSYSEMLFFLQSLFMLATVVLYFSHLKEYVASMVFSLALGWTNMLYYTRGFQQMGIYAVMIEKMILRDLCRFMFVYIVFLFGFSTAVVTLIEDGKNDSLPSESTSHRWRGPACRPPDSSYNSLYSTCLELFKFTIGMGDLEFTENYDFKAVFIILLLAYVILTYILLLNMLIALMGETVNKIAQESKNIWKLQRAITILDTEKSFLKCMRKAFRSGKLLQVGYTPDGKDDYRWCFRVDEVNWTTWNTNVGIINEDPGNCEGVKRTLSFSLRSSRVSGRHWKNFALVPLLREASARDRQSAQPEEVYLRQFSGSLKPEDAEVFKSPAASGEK
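Fluo-8 calcium influx in TRPV1-expressing cells, kinetic read (ex 480/em 520 nm). Compound added and read 3 min for agonist activity, followed by capsaicin at EC20 final and 2 min further read for enhancement.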
TRPML1 inh: qHTS for Inhibitors of the Human Mucolipin Transient Receptor Potential 1 (TRPML1); TRPML1-inducible cells, Ca2+ dye fluorescence, FDSS; hits give low values; inhibition of EC80 agonist-evoked calcium signal; activity change, negative = inhibition, % (test concentration not listed); 390,000 tested, 0.02% active; in the data active means activity change below about -50%; inconclusive means about -30% to -50%; inactive means above about -30%;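 note: stimulus is agonist 54-4 at its EC80 concentration; % is set by controls: 0 for no effect and ±100 for the full control effect; compound concentration not given in the record; the text of the record puts the active cut at -80%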
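Tet-induced TRPML1-DL cells loaded with Ca8 no-wash calcium dye were read kinetically on FDSS. Compound addition was followed by EC80 agonist 54-4 (4 uM final); inhibition was read over 110 s.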
TRPML1 ag: qHTS for Agonists of the Human Mucolipin Transient Receptor Potential 1 (TRPML1). Mucolipin-1 (Homo sapiens), Q9GZU1. TRPML1-expressing cells, Ca2+ dye fluorescence, FDSS; host cell line not named in the record; reference of the full effect not given here. activation, % (concentration not given with the values). 410,000 tested, 0.12% active. AID 624414, 2012; in the data active = activation above about 50%; inconclusive = about 30% to 50%; inactive = below about 30%; note: 0% is about no effect; the text of the record puts the active cut at 80%
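Tetracycline-induced TRPML1-DL cells are seeded and incubated overnight before loading with a no-wash Ca2+ dye and quencher. Agonist activity is taken from the 110 s fluorescence read following compound pin-transfer on an FDSS, before EC80 54-4 challenge.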
CtBP-E1A inh: qHTS Assay for Inhibitors of the CtBP/E1A Interaction | CtBP / adenovirus E1A interaction (AlphaScreen) | AlphaScreen GST-E1A/His-CtBP binding, 1536-well; hits give low values; control for the full effect not named in the record | activity change, % (test concentration not listed) | 340,000 tested, 0.49% active | AID 651724, 2012; in the data active means activity change below about -65%; inconclusive means about -30% to -65%; inactive means above about -30%; note: % is set by controls: 0 for no effect and ±100 for the full control effect; compound concentration not given in the record
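Steps: dispense buffer (Tris pH 8.0, NaCl 300 mM, TCEP 1 mM, BSA, Tween 20); add 5X protein mix (GST-E1A, His-CtBP, 125 nM each); pin 23 nL compound; 2 h at 37 °C, dark; add 5X beads (50 ug/mL); 1 h; read.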
D2 PAM: Beta-Arrestin HTS for Positive Allosteric Modulators of the Human D2 Dopamine Receptor: Potentiators; potentiation, % (test concentration not listed); 360,000 tested, 0.23% active; D(2) dopamine receptor (Homo sapiens), P14416; AID 624464, 2012; DiscoveRx D2 beta-arrestin cells, luminescence, 90 min; 100% = 57 uM dopamine signal; active = potentiation of 50% or more; inconclusive = 30% to 50%; inactive = 30% or less;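 note: compound concentration not given in the record; tested on top of an EC20 dose of dopamine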
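D2 cells co-treated with compound plus 50 nM dopamine (EC20) for 90 min at 37 deg C to detect potentiation. Beta-arrestin recruitment was read as enzyme-fragment luminescence after 1 h at ambient temperature. Full response was set by 57 uM dopamine.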
Six1-Eya2 inh: qHTS Assay for Inhibitors of the Six1/Eya2 Interaction; AlphaScreen GST-Six1/His-Eya2 binding, biochemical; hits give low values; control for the full effect not named in the record; activity change, % (concentration not given with the values); 360,000 tested, 0.56% active; in the data active = activity change below about -65%; inconclusive = about -30% to -65%; inactive = above about -30%; note: % is set by controls: 0 for no effect and ±100 for the full control effect
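Six1/Eya2 binding was read as AlphaScreen signal after compounds were pinned into GST-Six1 plus His-tagged Eya2 (5X stock 250/500 nM) in pH 8.0 Tris/NaCl/TCEP buffer, beads added, then incubated 1 h, 37 C, dark.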
* = called active by the depositor; ? = inconclusive; nt = not tested or not shown; & = joins results of further samples. Rows were taken by chance. About 0.95% of those tested had a hit in this group.

#	SMILES	TRPV1 potentiator	TRPML1 inh	TRPML1 ag
1	CCOC(=O)/C=C/C(=O)Nc1cccc([N+](=O)[O-])c1	13	6	-0.1
2	C/C(=N/NC(=O)CCc1ccccc1)c1ccc2c(c1)OCO2	-12	-2	-0.1
3	CCN1CCN(c2nc(-c3ccccc3)c3ccccc3n2)CC1	11	-2	-0.5
4	COc1ccc(CCn2nnnc2C(CC(C)C)N2CCC(C(N)=O)CC2)cc1OC (stereo unspecified)	6	-10	-1.0
5	Cc1ccc(S(=O)(=O)n2c(=O)oc3ccccc32)cc1	2	6	0.4
6	CCOCCNC(=O)c1ccccc1C(=O)NCCOCC	8	15	-0.2
7	Cc1cccc(C(=O)N[C@H](C(=O)Nc2nnc(C3CC3)s2)C(C)C)c1	7	-27	1.6
8	CCNC(=O)CC1C(=O)N(c2ccc(F)cc2)C(=O)N1Cc1ccc(OC)cc1 (stereo unspecified)	0	-6	0.4
9	COc1cccc(/C(O)=C/C(=O)C(=O)Nc2ccc(S(=O)(=O)NC(C)=O)cc2)c1	-4	6	-0.4
10	CCCNC(=O)N1CCC(C(=O)c2ccc(F)cc2)CC1	-41	1	-0.2
11	Cc1ccccc1S(=O)(=O)Cc1ccc(C(=O)N2CCN(c3ncccn3)CC2)o1	-13	-13	-0.6
12	Cc1cc(C)c2nc(N3CCC(C(=O)NCCCN4CCCC4=O)CC3)sc2c1	3	-16	0.3
13	Cc1ccc(C)c(S(=O)(=O)NCCCN2CCOCC2)c1	-13	3	-0.4
14	CC(C)NC(=O)N(C)C[C@H]1Oc2c(NS(=O)(=O)c3cccs3)cccc2C(=O)N([C@H](C)CO)C[C@@H]1C	nt	-8	0.0
15	COc1cccc(C2CC(C(F)(F)F)n3nc(C(=O)NCc4cccnc4)cc3N2)c1 (stereo unspecified)	0	60	0.2

#	CtBP-E1A inh	D2 PAM	Six1-Eya2 inh
1	-2	13	-22
2	-6	-8	-5
3	7	-24	7
4	-1	-2	1
5	-3	-1	2
6	4	4	2
7	-1	-28	2
8	1	10	5
9	9	-7	6
10	4	-1	21
11	1	-13	-1
12	nt	-9	0
13	11	0	4
14	-16	-3	-3
15	57	-13	15

An excerpt from above in order of length of the SMILES, smallest number first.
#	SMILES	TRPV1 potentiator	TRPML1 inh	TRPML1 ag
7	Cc1cccc(C(=O)N[C@H](C(=O)Nc2nnc(C3CC3)s2)C(C)C)c1	7	-27	1.6
11	Cc1ccccc1S(=O)(=O)Cc1ccc(C(=O)N2CCN(c3ncccn3)CC2)o1	-13	-13	-0.6
9	COc1cccc(/C(O)=C/C(=O)C(=O)Nc2ccc(S(=O)(=O)NC(C)=O)cc2)c1	-4	6	-0.4
14	CC(C)NC(=O)N(C)C[C@H]1Oc2c(NS(=O)(=O)c3cccs3)cccc2C(=O)N([C@H](C)CO)C[C@@H]1C	nt	-8	0.0

#	CtBP-E1A inh	D2 PAM	Six1-Eya2 inh
7	-1	-28	2
11	1	-13	-1
9	9	-7	6
14	-16	-3	-3

Other structures.
#	SMILES	TRPV1 potentiator	TRPML1 inh	TRPML1 ag
16	CN(c1ccc(C(=O)NCc2ccco2)cc1)S(C)(=O)=O	-9	-5	0.1
17	COc1ccc(CNC(=O)c2cccnc2Sc2ccc(C)c(C)c2)cc1	-16	7	5.2
18	CC(=O)N1CCC(=NNC(=O)c2cc3ccccc3cc2O)CC1	20	31	5.2
19	CC(C)(C)SCCNC(=O)CN(c1ccc(F)cc1)S(=O)(=O)c1ccccc1	1	56	4.3
20	O=C(CN1CCc2ccccc21)Nc1ccc2c(c1)OCCCO2	-19	-16	-0.3
21	Cc1ccc2ccc(C3C(=O)c4ccccc4C3=O)nc2c1	nt	22	0.8
22	Cc1cc(C(=O)CSc2nc3ccccc3n2CCC#N)c(C)n1Cc1cccs1	-5	2	-0.2
23	Cc1sc2nc(SCC(=O)NCc3ccco3)[nH]c(=O)c2c1C	-10	-3	-0.4
24	Cc1cccc(OCC(O)Cn2c(NCc3cccnc3)nc3c2c(=O)[nH]c(=O)n3C)c1 (stereo unspecified)	-5	-2	-0.7
25	OC1CCCC1	-44	7	-0.3
26	Cc1ccc(N(CC(=O)NCc2ccccc2Cl)S(=O)(=O)c2cccs2)cc1	3	12	2.0
27	N#CC1=C2SCC(O)(c3ccccc3)N2C(=O)CC1c1ccccc1 (stereo unspecified)	7	30	3.2
28	COc1cc(C2CC(=O)c3cnc(N4CCN(Cc5ccccc5)CC4)nc3C2)cc(OC)c1OC (stereo unspecified)	-6	23	2.5
29	Oc1ccc[n+](CC(O)c2ccccc2)c1 (stereo unspecified)	-22	6	0.2
30	Cn1c(=O)c2c(nc(SCC(=O)N3CCc4ccccc4C3)n2C)n(C)c1=O	-10	24	0.1

#	CtBP-E1A inh	D2 PAM	Six1-Eya2 inh
16	4	?	-2
17	9	-14	2
18	nt	0	-6
19	0	-6	-7
20	-2	-1	-16
21	-18	-9	-2
22	-12	-4	-13
23	0	-9	-13
24	0	-33	-4
25	1	1	-2
26	2	-8	1
27	-4	-2	-16
28	-11	-26	-1
29	-3	-14	11
30	3	-3	5

#	SMILES	TRPV1 potentiator	TRPML1 inh	TRPML1 ag
31	O=C(COC(=O)C12CC3CC(CC(O)(C3)C1)C2)NCc1ccco1	23	11	0.1
32	COCC(=O)Nc1nc2n(n1)C(c1ccc(Cl)cc1)CC(c1ccc(OC)cc1)N2 (stereo unspecified)	nt	-3	10
33	CCOc1ccccc1Oc1cn[nH]c1-c1ccc(OCC(=O)NN)cc1O	-5	24	-1.7
34	CCNC(=S)N/N=C/c1c(C)nn(-c2cccc(Cl)c2)c1Cl	-7	45	4.6
35	CC1CC(C)CN(c2ccc(C(=O)OCC(=O)NC3CCCc4ccccc43)cc2[N+](=O)[O-])C1 (stereo unspecified)	3	12	-0.7
36	O=c1[nH]c(-c2ccccc2)c(-c2ccccc2)nc1[N+](=O)[O-]	11	16	1.4
37	COc1ccc(C2C3=C(Nc4ncnn42)c2ccccc2CCC3)cc1 (stereo unspecified)	-5	16	0.7
38	O=c1nc(SCc2ccc(Cl)cc2)nc(-c2ccccc2)[nH]1	?	-8	-0.3
39	CC(C)(C)OC(=O)NCCOC(=O)c1[nH]cnc1C(=O)NCc1ccccc1	-5	5	-0.5
40	CCOC(=O)C1(Cc2cccc(Cl)c2)CCCN(C(=O)c2occc2C)C1 (stereo unspecified)	3	40	1.8
41	O=c1[nH]c2ccc(F)cc2[nH]c1=O	3	5	0.4
42	CCc1nc2ccc(C(=O)NCCCN3CCCC3=O)cn2c1N(C)C(=O)Nc1ccccc1OC	nt	nt	-0.7
43	Cc1cc(/C=N/NC(=O)c2ccncc2)c(C)n1-c1cccc(C(F)(F)F)c1	12	-3	-0.4
44	CCOC(=O)c1c(C)oc2c1c(C=NCCC(=O)O)c(O)c1ccccc12	4	2	0.2
45	CCS(=O)(=O)c1nc(S(=O)(=O)c2ccc(C)cc2)c(N2CCCCCC2)s1	nt	12	-0.1

#	CtBP-E1A inh	D2 PAM	Six1-Eya2 inh
31	nt	nt	nt
32	0	7	-10
33	-7	-1	1
34	-9	-5	9
35	-1	-10	-11
36	8	-1	1
37	-3	-3	-4
38	9	1	-8
39	-3	-3	-6
40	1	-9	0
41	-2	-4	5
42	1	-2	6
43	-18	-13	-10
44	-18	14	-6
45	0	-13	0

#	SMILES	TRPV1 potentiator	TRPML1 inh	TRPML1 ag
46	CCN(CC)C(=O)Oc1ccc(Br)c2ccccc12	4	6	4.4
47	COc1ccc(NC(=O)c2ccc3c(c2)NC(=O)CS3)cc1	-15	-4	0.1
48	CCn1c(SCC(=O)Nc2ccccc2)nnc1-c1ccc(S(=O)(=O)N2CCOCC2)cc1	6	12	-0.6
49	NC(=O)C1CCN(c2cc(N3CCOCC3)ccc2[N+](=O)[O-])CC1	-11	-21	0.2
50	Cn1c(NC(=O)COc2ccccc2)cc(=O)n(C)c1=O	-8	4	-0.2
51	O=c1c2ccccc2sn1-c1ccccc1	2	0	5.4
52	CCOC(=O)C(=Cc1ccccc1)C(=O)c1ccccc1	nt	-19	-0.4
53	NS(=O)(=O)c1ccc(NC(=O)Cc2c(F)cccc2Cl)cc1	-10	18	0.8
54	Cc1nc(/N=C\N(C)C)sc1C(=O)Nc1ccccc1	?	-5	-0.5
55	CCOc1ccc(Cl)cc1S(=O)(=O)N1CCC(C(=O)NCc2ccncc2)CC1	-3	3	1.3
56	Cc1ccc(SC(C)c2nc(-c3ccncc3)no2)cc1 (stereo unspecified)	22	16	5.4
57	N#CCC(=O)Nn1c(=S)[nH]c2ccccc2c1=O	14	12	-0.7
58	C/C(CC(=O)Nc1ccccc1)=N\NC(=O)COc1ccc(C)cc1Br	11	3	0.0
59	FC(F)(F)c1ccccc1-n1c(-c2ccco2)n[nH]c1=S	4	5	-0.8
60	O=c1c2[nH]c3ccc(F)cc3c2ncn1CCC1=CCCCC1	1	31	0.6

#	CtBP-E1A inh	D2 PAM	Six1-Eya2 inh
46	13	1	25
47	14	-5	-3
48	3	-4	-1
49	-3	7	-5
50	-9	-8	-3
51	-4	-32	-1
52	1	-20	5
53	-11	-5	2
54	4	-7	7
55	3	1	0
56	12	5	9
57	5	2	13
58	5	0	5
59	1	-7	9
60	5	-7	4

#	SMILES	TRPV1 potentiator	TRPML1 inh	TRPML1 ag
61	CCOc1ccc(NC(c2ccccc2)P(=O)(OC)OC)cc1 (stereo unspecified)	1	-18	-0.4
62	CC(Sc1nnc(-c2ccco2)n1C)C(=O)Nc1ccc(N2CCOCC2)cc1 (stereo unspecified)	-6	-11	0.9
63	Cc1ccc(C)c(NC(=O)CN(C)C(=O)c2ccc(-c3ccc(Cl)cc3)o2)c1	15	-3	6.9
64	C=CCC[C@H](Cc1ccc(F)cc1)C(=O)OC[C@@H](NC(=O)[C@H](CC=C)CC(=O)NCCO)C(C)(C)C	nt	-5	0.1
65	O=C1CCN(Cc2ccccc2)CCN1[C@H](CO)Cc1ccccc1	-14	-5	-0.3&-0.2&0.1
66	O=C(O)CCC(=O)Nc1cccc2cccnc12	-4	15	-0.2
67	Nc1nc2ccccc2n1CCOc1ccc(F)cc1	-5	-4	-0.9

#	CtBP-E1A inh	D2 PAM	Six1-Eya2 inh
61	nt	-29	-6
62	-5	8	3
63	-13	-68	-3
64	5	1	-3
65	3	-39	2
66	13	-12	33
67	nt	-5	-9

Among those listed so far, these contain bromine.
#	SMILES	TRPV1 potentiator	TRPML1 inh	TRPML1 ag
46	CCN(CC)C(=O)Oc1ccc(Br)c2ccccc12	4	6	4.4
58	C/C(CC(=O)Nc1ccccc1)=N\NC(=O)COc1ccc(C)cc1Br	11	3	0.0

#	CtBP-E1A inh	D2 PAM	Six1-Eya2 inh
46	13	1	25
58	5	0	5
